NS1 inh – inhibitors of influenza NS1 protein function. S. cerevisiae slowed by influenza A NS1, growth recovery by OD600. Potency, µM (top dose mostly 46.1 µM), inactives show top-dose activity, positive = more growth. 270,000 tested, 0.4% active. AID 2326; note: actives are rising curves; nearly all actives have a fitted effect of over 50% in size
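In this qHTS, NS1 from influenza A is expressed in budding yeast, where it slows growth. Cells are switched from glucose to 2% galactose medium (pH 6.0, -URA), treated with compound, and growth recovery is read at OD600.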
Lassa entry inh – inhibitors of Lassa virus binding or cell entry; Lassa virus pseudotype entry inhibition, cell reporter; control for the full effect not named in the record; Potency, µM (titrated, usually from 37.9 µM), for inactives: at the highest dose activity change, negative = inhibition, hits mostly inhibitors; 300,000 tested, 1.2% active; AID 540256; active means well fitted inhibition curve with a large enough effect; inconclusive means small, poorly fitted or top-dose-only effect, or effect the other way; inactive means flat fitted curve, though single readings scatter; tested in HEK293 cells; note: % is set by controls: 0 for no effect and ±100 for the full control effect; nearly all actives have a fitted effect of over 50% in size; luciferase read-out
Marburg entry inh – blocks Marburg virus binding to or entry into cells; AID 540276; 300,000 tested, 1.8% active; Marburg virus pseudotyped entry inhibition, cell reporter; control for the full effect not named in the record; about a third of the inactives were read at about 46 µM; Potency, µM (series often up to 37.8 µM), inactives show top-dose activity change, negative = inhibition, hits mostly inhibitors; active = well fitted inhibition curve with a large enough effect; inconclusive = small, poorly fitted or top-dose-only effect, or effect the other way; inactive = flat fitted curve, though single readings scatter; tested in HEK293 cells; about a fifth of its hits are not listed in these tables; note: % is set by controls: 0 for no effect and ±100 for the full control effect; luciferase read-out
RE007 growth inh – less growth of the S. pombe RE007 Vpr strain; S. pombe RE007 Vpr strain, BacTiter-Glo ATP luminescence, 24 h; control for the full effect not named in the record; Potency, µM (top dose mostly 92.2 µM), without a hit: at the highest dose activity change, negative = less growth; 360,000 tested, 0.21% active; AID 651644; active = well fitted falling curve with a large enough effect; inconclusive = small, poorly fitted or top-dose-only effect; inactive = no such curve, though single readings can be large or run the other way;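 note: % is set by controls: 0 for no effect and ±100 for the full control effect; nearly all actives have a fitted effect of over 50% in size; the assay follows cell death caused by Vpr and the record does not say whether a fall means rescue or toxicity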
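Fission yeast strain RE007, carrying one chromosomally integrated HIV-1 vpr copy, was seeded at OD 0.01 in PMG+AL medium with 23 nL pinned compound. After 24 h at 30 °C and 99% humidity, viability was read by BacTiter-Glo luminescence.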
SARS PLP yeast – SARS-CoV PLP inhibition in yeast; S. cerevisiae expressing SARS-CoV PLpro, growth rescue; control for the full effect not named in the record; Potency, µM (top dose mostly 32.9 µM), for inactives: at the top dose activity, positive = growth rescue; 330,000 tested, 0.19% active; note: 0% is about no effect; nearly all actives have a fitted effect of over 55% in size; growth read by luminescence after 48 h
Cruzain inh Det – inhibitors of Trypanosoma cruzi cruzain with detergent; P25779; Potency, µM, for inactives: max response, negative = inhibition, usual class: inhibitors; AID 1478; purified cruzain, Z-FR-AMC fluorescence, 0.01% Triton; 200,000 tested, 0.43% active; active = well fitted curve in the direction sought with a large enough effect; inconclusive = small, poorly fitted or top-dose-only effect, or another doubt; inactive = no such curve, though single readings can be large; an effect the other way counts as inactive or inconclusive;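 note: plate controls were neutral wells for no effect and buffer without enzyme for full effect; nearly all actives have a fitted effect of over 40% in size; top concentration of the series not given in the record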
Target sequence (P25779 123-467 limits assumed): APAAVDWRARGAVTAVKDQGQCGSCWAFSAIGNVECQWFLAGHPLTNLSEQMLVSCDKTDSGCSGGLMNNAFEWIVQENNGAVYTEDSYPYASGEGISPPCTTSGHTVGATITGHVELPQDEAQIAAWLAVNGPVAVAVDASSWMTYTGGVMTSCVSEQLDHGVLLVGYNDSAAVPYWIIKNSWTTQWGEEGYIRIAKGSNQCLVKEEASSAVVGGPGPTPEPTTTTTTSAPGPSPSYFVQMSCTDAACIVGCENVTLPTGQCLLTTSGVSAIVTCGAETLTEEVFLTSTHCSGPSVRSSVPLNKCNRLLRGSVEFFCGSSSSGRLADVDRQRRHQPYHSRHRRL
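Enzyme 1.5 nM, Z-FR-AMC 2 uM, NaOAc 100 mM pH 5.5, DTT 5 mM, Triton X-100 0.01%; 15 min RT compound preincubation; kinetic ex360/em450, 60 s delta.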
Cruzain inh noDet – inhibitors of Trypanosoma cruzi cruzain without detergent; P25779; purified cruzain, Z-FR-AMC fluorescence, no detergent; Potency, µM, for inactives: max response, negative = inhibition, hits mostly inhibitors; 200,000 tested, 2.3% active; AID 1476; active = well fitted curve in the direction sought with a large enough effect; inconclusive = small, poorly fitted or top-dose-only effect, or another doubt; inactive = no such curve, though single readings can be large; an effect the other way counts as inactive or inconclusive;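 note: plate controls were enzyme without inhibitor for no effect and buffer without enzyme for full effect; nearly all actives have a fitted effect of over 40% in size; top concentration of the series not given in the record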
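Detergent-free condition (0.00005% Triton X-100) in acetate buffer pH 5.5 with DTT. 1.5 nM enzyme and compound were pre-mixed 15 min, then 2 uM Z-FR-AMC substrate added; reaction progress from fluorescence change between first and third reads (60 s).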
StopGo reporter – FMDV 2A StopGo reporter, luciferase signal | human cells with a luciferase reporter of 2A StopGo recoding; control for the full effect not named in the record | Potency, µM (titrated, usually from 57.9 µM), for inactives: top-dose signal change, negative = less light | 410,000 tested, 1.2% active; active = well fitted falling curve with a large enough effect; inconclusive = small, poorly fitted or top-dose-only effect; inactive = no such curve, though single readings can be large or run the other way; tested in HEK293T cells; note: % is set by controls: 0 for no effect and ±100 for the full control effect; nearly all actives have a fitted effect of over 45% in size; luciferase light after 4 h
Numbers without * were called inactive; ? = inconclusive; nt = no result given; & = joins results of further samples; [ ] = another dose, or the depositor's remark. Unless noted, calls come from the whole dose curve; as a rule, active means well fitted rising curve with a large enough effect; inconclusive means small, poorly fitted or top-dose-only effect; inactive means no such curve, though single readings can be large or run the other way. Potency is the fitted concentration of half-maximal effect.

SMILES	NS1 inh	Lassa entry inh	Marburg entry inh	RE007 growth inh	SARS PLP yeast	Cruzain inh Det	Cruzain inh noDet	StopGo reporter
O=c1nc(SCc2c(F)cccc2Cl)nc(-c2ccc(Cl)cc2)[nH]1	3%	12%	0%[46.1 µM]	3%	-4%	nt	nt	0%
CC(=O)Nc1ccc(NC(=O)Cn2cc3c(n2)CCCCC3)cc1	nt	9%[46.1 µM]	11%[46.1 µM]	nt	nt	-2.0%	?	-12%
COCCn1c(SCC(=O)c2cc(C)n(C)c2C)nc2ccccc2c1=O	-4%	?	-25%[46.1 µM]	41%	-5%	nt	nt	12%
COc1ccc(/C=C2\SC(=S)N(CCC(=O)N3CCOCC3)C2=O)cc1	4%	16%	-21%	-7%	6%	nt	nt	27%
COc1ccc(CNC(=O)COC(=O)c2ccc(C(=O)c3ccccc3)cc2)cc1	nt	-5%	15%	6%	12%	nt	nt	2%
Cc1ccc(S(=O)(=O)NC(=O)c2ccccc2)cc1C(C)C	-3%	?	6%[46.1 µM]	25%	-2%	nt	nt	26%
Cc1ccc(C(=O)NCCSc2ccccc2)cc1S(=O)(=O)Nc1ccccc1	25%	?	23µM*	-6%	-2%	-5.0%	-21%	-6%
COc1ccc(CN(Cc2ccc(C(=O)O)cc2)C(=S)Nc2ccccc2F)cc1OC	nt	3%[46.1 µM]	9%[46.1 µM]	3%	-2%	nt	nt	-21%
CC(=O)N1CCc2cc(NS(=O)(=O)c3cccs3)ccc21	13%	1%	14%	-2%	6%	2.3%	-7%	34%[activator]
CCOC(=O)c1c(C)[nH]c(C)c1C(=O)COC(=O)[C@@H](NC(=O)c1ccco1)C(C)C	nt	26%	7%	-15%	2%	nt	nt	-9%
CCOc1ncccc1C(=O)OCc1cc(=O)oc2c(C)c(C)ccc12	1%	?	?	-16%	1%	3.4%	17%	-2%
COC(=O)c1ccc(-c2noc(CN(C)Cc3ccncc3C)n2)cc1	-1%	nt	nt	-6%	-3%	nt	nt	3%
O=C(COc1cccnc1[N+](=O)[O-])N1CCN(S(=O)(=O)c2ccc3ccccc3c2)CC1	15%	?	3%	3%	12%	-4.0%	?	-17%
COc1cc(OC)c2c(c1O)OC(c1ccccc1)CC2=O (stereo not given)	2%	nt	nt	-5%	1%	nt	nt	-12%
O=C(COC(=O)c1cnccn1)c1ccc(-c2ccccc2)cc1	nt	11%	?	-25%	-6%	nt	nt	-4%
O=C(Nc1cccs1)Nc1ccc(Br)cc1F	-31%	?	?	?	-77%	-12%	-5%	19%
CCCCCn1c(=O)c(C(=O)NC(C)c2ccccc2)c(O)c2ccccc21 (stereo not given)	-5%	?	-16%	10%	0%	nt	nt	-19%
CN(Cc1ccc(-n2cccn2)cc1)C(=O)c1cnn2c1NC(c1ccco1)CC2C(F)(F)F (stereo not given)	-2%	?	?	8%	1%	-4.3%	24%	25µM*
Nc1[nH][nH]c(=O)c1N=Nc1cccc(Cl)c1	-1%	-30%	-9%[46.1 µM]	-2%	-1%	nt	nt	24%
O=C(CSc1nc2ccccc2s1)Nc1ccc2c(c1)OCO2	13%	5%	?	6%	-16%	-4.8%	7%	30%
Cc1ccc(S(=O)(=O)N2CCN(C(=O)c3ccc(S(=O)(=O)N4CCCC4)cc3)CC2)cc1	7%	nt	nt	3%	-4%	nt	nt	-16%
COc1ccc2c(c1)c(=O)c(C(=O)c1ccc(C)cc1)cn2Cc1ccccc1F	nt	?	11µM*	nt	nt	-9.4%	-18%	-27%
CCOC(=O)C1CCN(Cc2cccc(Oc3ccccc3)c2)CC1	-6%	nt	nt	-2%	0%	nt	nt	-7%
CCc1ccc(-n2nc(CO)c(C(=O)NC(C)c3ccc(Cl)cc3)n2)cc1 (stereo not given)	nt	?	-2%[46.1 µM]	nt	nt	-5.9%	16%	-14%
CCCc1nc2oc3ccccc3c(=O)c2c(=O)n1CCCOC	1%	11%	7%[46.1 µM]	35%	0%	nt	nt	11%
CC1(C)CC(=O)C2=C(C1)Nc1ccccc1NC2c1cc(Cl)ccc1O (stereo not given)	5%	-9%	?	-19%	2%	nt	nt	-14%
COc1ccc(OC)c(NC(=O)Cn2cc(S(=O)(=O)c3ccccc3)c(=O)c3cc(C)ccc32)c1	nt	-1%[46.1 µM]	4%[46.1 µM]	nt	nt	-6.6%	10%	0%
COc1ccc2nc(NC(=O)c3ccc(-n4nc(C)cc4C)cc3)sc2c1	-4%	-18%	-26%	-13%	6%	-11%	-2%	-12%
CCC(C)OC(=O)C(C)Oc1ccc(-c2ccccc2)cc1 (stereo not given)	-2%	nt	-4%	nt	-16%	-0.7%	1%	-6%
CCC(CC)C(=O)c1c[nH]c(C(=O)O)c1	4%	0%	1%[46.1 µM]	-2%	-1%	nt	nt	1%
COCCCNC(=O)CSc1nc2sc(C(=O)OC)c(C)c2c(=O)n1N	nt	-17%[46.1 µM]	0%[46.1 µM]	2%	2%	nt	nt	4%
Cc1nnc(SCCn2c(N3CCCCC3)nc3c2c(=O)[nH]c(=O)n3C)s1	-7%	8%&-3%	5%&26%	14%	13%	-1.1%	-2%	-11%
Cc1ccc(C)c(C(C)NC(=O)c2ccncc2)c1 (stereo not given)	5%	nt	nt	-8%	-5%	nt	nt	-18%
Cc1ccccc1OC1CCN(C(=O)c2cc(COc3ccccc3)on2)CC1	-27%	?	24%	-7%	-7%	nt	nt	0%
Cc1ccc(S(=O)(=O)NCCc2nnc3ccc(SCC(=O)Nc4c(C)cc(C)cc4C)nn23)cc1	nt	-5%[46.1 µM]	nt	nt	nt	-1.8%	15%	-12%
CCOC(=O)C1(Cc2cccc(OC)c2)CCN(C/C=C/c2ccccc2)CC1	0%	?	7.9µM*	2%	-1%	nt	nt	?
N#Cc1cccc(Oc2ccc(-c3cnc4ccccc4n3)cc2)c1C#N	13%	-10%	0%	17%	9%	-4.3%	5%	-22%
Cc1cccc(-c2oc3ccccc3c2C#CCCCCO)c1	-27%	nt	nt	6%	2%	nt	nt	-10%
COCCCNC(=S)NNC(=O)c1cccnc1	5%	12%	10%	30%	-8%	1.3%	13%	9%
CCOC(=O)Cn1c(=O)oc2cc(S(=O)(=O)NC(C)c3ccccc3)ccc21 (stereo not given)	3%	22%[46.1 µM]	3%[46.1 µM]	-2%	-12%	1.0%&2.7%	-10%&7%	14%&3%
O=C(NCCCNC(=O)c1cccs1)c1cccs1	7%	-2%	10%	-20%	-5%	3.1%	-8%	-9%
Clc1cccc(CNCCCSc2ncccn2)c1Cl	0%	5%[46.1 µM]	24%[46.1 µM]	?	2%	nt	nt	10%
O=C(Cn1cc(SCc2cccc(C(F)(F)F)c2)c2ccccc21)N1CCCCCC1	nt	5%[46.1 µM]	nt	nt	nt	-11%	-15%	-3%
CN1C(=O)CCC2(c3ccccc3)CC=C(O)C=C12 (stereo not given)	nt	9%[46.1 µM]	-3%[46.1 µM]	-5%	nt	nt	nt	5%
Cc1ccccc1CC1(CO)CCCN(C(=O)c2ccccc2Cl)C1 (stereo not given)	-4%	-16%	?	0%	-2%	nt	nt	8%
O=C(NCc1ccc2c(c1)OCO2)c1nnc(Cc2ccc(Cl)cc2)o1	-16%	2%	-3%	5%	0%	-0.3%	-17%	-10%
CCCCn1c(SCC(=O)N2c3ccccc3CCc3ccccc32)nc2c1c(=O)n(C)c(=O)n2C	-5%	-4%	?	27%	-13%	-6.3%	9%	?
O=C(Nc1ccc(NS(=O)(=O)c2ccccc2)cc1)c1ccccc1	9%	-10%[46.1 µM]	?	-4%	0%	nt	nt	10%
CC1(C)S[C@@H]2[C@H](NC(=O)C(C(=O)O)c3ccccc3)C(=O)N2[C@H]1C(=O)O (stereo not given in full)	7%	5%	12%	-16%[18.4 µM]	0%	-5.8%	-7%	-16%&3%
Cc1ccc(N(CC(=O)NC2CCCC2)C(=O)CCC(=O)Nc2nc(C)cs2)cc1	-3%	nt	-22%[46.1 µM]	-7%	1%	nt	nt	7%
COCCOCCn1c(/C=C/c2ccccc2)nc2ccccc21	-6%	?	?	?	-2%	nt	nt	-11%
CCC1CN(C(=O)Nc2ccc(C)cc2)c2cc(C)ccc2O1 (stereo not given)	-40%	?	11µM*	-17%	-1%	nt	nt	9%
CNC(=S)NC1CC2CCCC(C1)N2Cc1ccco1 (stereo not given)	13%	14%	-29%	0%	1%	0.0%	-8%	nt
CCCN(CCC)CCCNC(=O)Cn1cnc2sc(C)c(S(=O)(=O)N3CCOCC3)c2c1=O	-18%	8%[46.1 µM]	-10%[46.1 µM]	8%	-1%	nt	nt	-3%
COC(=O)C1CCCN1C(=O)COc1ccc(Br)cc1Cl (stereo not given)	-20%	-16%	2%	nt	6%	-1.6%	1%	-4%
CCOC(=O)C1CCN(C(=O)COC(=O)c2cc([N+](=O)[O-])ccc2N2CCOCC2)CC1	nt	19%	17%	-26%	-9%	nt	nt	0%

Following part.
SMILES	NS1 inh	Lassa entry inh	Marburg entry inh	RE007 growth inh	SARS PLP yeast	Cruzain inh Det	Cruzain inh noDet	StopGo reporter
CCOC(=O)/C=C/C(=O)OCC(=O)NC(c1ccccc1)c1ccccc1	-41%	17%	?	nt	-37%	-7.9%	?	?
CN(C)c1ccc(CNC(=O)CCNS(=O)(=O)c2cc(Br)cnc2N)cc1	9%	nt	nt	-5%	2%	nt	nt	-7%
COC(=O)C1=C(C(=O)OC)[C@@H]2N(C)c3ccccc3[C@@]23C[C@@H](C(=O)OC)N(C(=O)c2cccs2)C3=N1	-8%	nt	-5%	1%	3%	nt	nt	-4%
COc1cccc(-c2csc(N3CCN(CC(=O)NNC(=O)c4ccco4)CC3)n2)c1	4%	3%	19%	15%	1%	nt	nt	-5%
CC(C)(C)OC(=O)N1CCN(C(=O)Nc2ccc3c(c2)OCCO3)CC1	nt	12%	-23%[46.1 µM]	-4%	1%	nt	nt	12%
COc1ccccc1/C=C/c1onc(C)c1S(=O)(=O)N1CCC(C(=O)NC(C)C)CC1	2%	nt	nt	6%	?	nt	nt	-10%
CC1=C(C(N)=O)S(=O)(=O)c2ccccc21	-7%	nt	nt	-1%	0%	nt	nt	-15%

Screening data: PubChem, National Center for Advancing Translational Sciences (NCATS)
